B2AR ag = beta2AR agonists driving receptor internalization, primary screen, cell-based, FAP fluorogen, flow cytometry. response, % (concentration not given with the values). 0.43% of 340,000 active. Am2.2-beta2AR cells; reference of the scale not given here;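 active = response above a set limit, near 3 SD of response in nonfluorescent compounds, cut at about 42% in these data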;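 note: stock transfer was 100 nL into about 11 µL; a reference agonist was the positive control; negative values mostly stem from fluorescent compounds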
Beta apoptosis = inhibitors of cytokine-induced beta cell apoptosis, primary screen, luminescence | protection from apoptosis, % (concentration not given with the values) | INS-1E cytokine-induced death, ATP luminescence, 48 h; percent of positive-control rescue, neutral wells zero | 0.8% of 300,000 active | AID 435005, 2010;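 active = all replicates at 75% or more, or half of them and the mean; inconclusive = half reach 75% but not the mean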;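 note: 0% = cytokine-treated negative control wells and 100% = positive control rescue; higher means more ATP so stronger rescue from cytokine killing; wells of about 40 µL received 100 nL stock; the first replicate is given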
RanGTP-Imp inh = inhibitors of RanGTP-importin-beta interaction, primary screen, biochemical, FRET, CFP-Ran, YFP-importin-beta, homogeneous | cell-free CFP-Ran/YFP-importin-beta FRET ratio | inhibition, % (no concentration beside the values) | 1.1% of 300,000 active | AID 2216, 2009;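 active = most replicates above 15%; inconclusive = exactly half above 15%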;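 note: 0% = DMSO wells and 100% = Ran loaded with GDP instead of GTP; wells of about 40 µL received 100 nL stock; the first replicate is given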
LANA-H2B inh = blockers of LANA interaction with H2A/H2B – biochemical, FP readout, HTS, primary screen. 0.6% of 320,000 active. inhibition, % (concentration not given with the values). cell-free LANA-H2A/H2B peptide, fluorescence polarization. Protein LANA1 (Human herpesvirus 8 type P (isolate GK18)), Q9QR71; in the data active = inhibition mostly above about 10%, no sharp cut-off; inactive = mostly below about 6.7%;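 note: stock transfer was 7.5 nL into about 10 µL; 0% = median of vehicle wells and 100% = median of positive control wells; one replicate is shown; the record names a cut of 25% in any replicate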
Target sequence (Q9QR71 whole entry, looked up): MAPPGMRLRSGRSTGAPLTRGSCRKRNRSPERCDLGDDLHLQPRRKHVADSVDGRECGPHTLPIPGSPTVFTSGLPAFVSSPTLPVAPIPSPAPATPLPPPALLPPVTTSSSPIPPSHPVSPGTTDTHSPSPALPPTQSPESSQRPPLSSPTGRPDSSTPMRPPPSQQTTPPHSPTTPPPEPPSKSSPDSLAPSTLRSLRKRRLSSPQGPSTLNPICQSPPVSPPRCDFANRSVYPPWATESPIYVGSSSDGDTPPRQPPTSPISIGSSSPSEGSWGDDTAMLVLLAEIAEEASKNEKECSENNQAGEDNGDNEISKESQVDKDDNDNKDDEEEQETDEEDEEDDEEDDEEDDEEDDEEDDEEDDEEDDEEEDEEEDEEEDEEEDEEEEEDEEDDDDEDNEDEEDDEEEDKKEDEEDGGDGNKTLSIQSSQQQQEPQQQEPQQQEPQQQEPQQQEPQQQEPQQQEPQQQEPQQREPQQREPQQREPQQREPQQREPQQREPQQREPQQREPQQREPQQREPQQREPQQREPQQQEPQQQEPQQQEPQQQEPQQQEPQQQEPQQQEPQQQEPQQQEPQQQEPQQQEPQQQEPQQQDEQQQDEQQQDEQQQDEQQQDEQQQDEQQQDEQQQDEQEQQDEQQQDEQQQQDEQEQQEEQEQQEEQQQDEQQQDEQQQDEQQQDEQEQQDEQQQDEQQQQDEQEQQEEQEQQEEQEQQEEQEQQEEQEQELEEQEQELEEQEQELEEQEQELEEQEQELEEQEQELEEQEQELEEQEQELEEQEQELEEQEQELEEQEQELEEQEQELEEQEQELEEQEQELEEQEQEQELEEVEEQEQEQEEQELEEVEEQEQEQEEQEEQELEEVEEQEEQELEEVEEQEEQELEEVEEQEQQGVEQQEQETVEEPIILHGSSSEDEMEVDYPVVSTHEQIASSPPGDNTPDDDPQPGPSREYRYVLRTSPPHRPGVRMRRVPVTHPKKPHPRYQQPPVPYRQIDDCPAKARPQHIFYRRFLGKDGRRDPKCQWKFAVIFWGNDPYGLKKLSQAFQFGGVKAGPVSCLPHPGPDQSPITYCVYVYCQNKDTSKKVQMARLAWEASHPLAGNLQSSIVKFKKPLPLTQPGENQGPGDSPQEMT
UCH37 inh = inhibitors of human UCH37 deubiquitinase, primary screen, biochemical, Ub-AMC cleavage, fluorescence; AID 588478, 2011; purified proteasome/UCH37; Ubiquitin carboxyl-terminal hydrolase isozyme L5 (Homo sapiens), Q9Y5K5; inhibition, % (test concentration not listed); 0.33% of 330,000 active;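 active = mean of two replicates above 20%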;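 note: 0% = compound-free wells with enzyme and 100% = wells lacking proteasome; stock transfer was 100 nL into about 20 µL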
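Material: Human UCH37 enzyme supplied as purified proteasome complex | Schedule: 30 min preincubation with enzyme, 25 min cleavage at room temperature | Detection: AMC fluorescence 355/460 nm | Measure: % inhibition of Ub-AMC cleavage fluorescence | Controls: Wells without proteasome as full block, compound-free enzyme plus substrate as uninhibited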
A1 inh = caspase 3/7 activation in MEF A1-2A-BIM cells, primary screen, A1 inhibitor project, cell-based, luminescence, HTS | Caspase-Glo 3/7 luminescence, 3 h; percent of clofoctol response, vehicle zero | caspase activation, % (test concentration not listed) | 0.066% of 330,000 active;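 active = over half of replicate activation scores above 10%, or exactly half above 10 with the replicate mean above 10; inconclusive = replicate mean below 10 yet half the replicates above 10; inactive = over half of replicates below 10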;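 note: wells of about 30 µL received 50 nL stock; many hits fall short of the cut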
T cruzi repl = inhibitors of intracellular T. cruzi growth, primary screen, luminescence, NIH3T3 host cells; T. cruzi beta-gal in NIH3T3, 90 h; inhibition, % (test concentration not listed); 1.4% of 300,000 active; AID 1885, 2009;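 active = mean inhibition across valid replicates above about 55%, limit read from the data; inconclusive = mean below that limit but half or more replicates reach it; inactive = mean below it, under half of replicates reach it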;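 note: signal also drops with host cell toxicity which is not excluded here; 0% = plate median of DMSO wells and 100% = zero luminescence signal; higher percent means less beta-gal luminescence so fewer parasites; stock transfer was 50 nL into about 50 µL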
Calb FLC = C. albicans growth inhibition with fluconazole, primary screen, CaCi-2 strain, Alamar Blue fluorescence; C. albicans CaCi-2 (fluconazole-resistant clinical isolate) + fluconazole, 48 h; AID 1979, 2009; 0.57% of 300,000 active; growth inhibition, % (no concentration beside the values);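 active = most replicates above 75%; inconclusive = exactly half above 75%; inactive = most below 75%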;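 note: all wells also contain fluconazole at 8 µg/ml as a sub-toxic cotreatment; 0% = median of DMSO wells and 100% = median of geldanamycin control wells; wells of about 8 µL received 7.5 nL stock; the first replicate is given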
Numbers without * were called inactive.

Screening Cc1ccc(C(=O)Nc2sc(C)c(-c3ccccc3)c2C(N)=O)cc1[N+](=O)[O-] returned B2AR ag -2, Beta apoptosis 9, RanGTP-Imp inh 2.3, LANA-H2B inh 1.1, UCH37 inh 2.7, A1 inh 0.0, T cruzi repl 23 and Calb FLC 2.
`CC(=O)c1c(C)[nH]c(C(=O)Nc2ccccc2N2CCOCC2)c1C` gave B2AR ag -8, Beta apoptosis 2, RanGTP-Imp inh 6.2, LANA-H2B inh 6.5, UCH37 inh 3.9, A1 inh -0.2, T cruzi repl 11 and Calb FLC -56.
`CSCCC(NC(=O)c1ccc(Cl)cc1)C(=O)OCC(=O)Nc1cc(Cl)ccc1C` (configuration not stated) gave B2AR ag 7, Beta apoptosis -9, RanGTP-Imp inh -0.7, LANA-H2B inh 2.6, UCH37 inh 2.2, A1 inh 0.6, T cruzi repl 1 and Calb FLC -11.
Screening CCCCN(C(=O)C1CCC1)c1c(N)n(CC(C)C)c(=O)[nH]c1=O returned B2AR ag 2, Beta apoptosis -1, RanGTP-Imp inh 3.3, LANA-H2B inh -3.6, UCH37 inh -1.9, A1 inh -0.3, T cruzi repl -5 and Calb FLC 3.
`CC1=C(c2ccc(C)cc2)S(=O)(=O)N(CC(=O)O)C1=O` gave B2AR ag 0, Beta apoptosis -7, RanGTP-Imp inh 3.7, LANA-H2B inh 2.9, UCH37 inh 6.3, A1 inh -0.5, T cruzi repl 1 and Calb FLC -2.
`O=C(Cn1c(=O)oc2cc(S(=O)(=O)N3CCCC3)ccc21)N1CCN(C2CCCCC2)CC1` gave B2AR ag -9, Beta apoptosis -7, RanGTP-Imp inh 4.0, LANA-H2B inh -0.1, UCH37 inh 8.4, A1 inh 0.1, T cruzi repl -3 and Calb FLC -6.
For Cc1ccc(NC2=NC(c3ccccc3)n3c(nc(C)cc3=O)N2)c(C)c1 (configuration not stated) the results were B2AR ag -1, Beta apoptosis -3, RanGTP-Imp inh 0.3, LANA-H2B inh -2.8, UCH37 inh 4.7, A1 inh 0.0, T cruzi repl -1 and Calb FLC 6.
For CC(C)c1ccc(N2C(=O)CC(Sc3ncn[nH]3)C2=O)cc1 (configuration not stated) the results were B2AR ag 14, RanGTP-Imp inh 2.1, LANA-H2B inh 5.0, UCH37 inh 2.6, A1 inh -0.8, T cruzi repl 25 and Calb FLC -1.
For COc1ccc(-c2cc(CCCC(=O)NCCc3cc(OC)ccc3OC)no2)cc1 the results were B2AR ag 4, Beta apoptosis -3, RanGTP-Imp inh 4.5, LANA-H2B inh -2.9, UCH37 inh 1.1, A1 inh 0.2, T cruzi repl 30 and Calb FLC -21.
Screening Cc1cc(C=C2C(=O)c3ccccc3C2=O)c(C)n1-c1ccc(Cl)cc1 returned B2AR ag 10, RanGTP-Imp inh 1.9, T cruzi repl -7 and Calb FLC -13.
For Cn1c(-c2ccc3c(c2)OCO3)cnc1NCc1cccc(Cl)c1 the results were B2AR ag -4, Beta apoptosis -3, RanGTP-Imp inh -0.6, LANA-H2B inh -1.4, UCH37 inh 2.8, A1 inh 0.9, T cruzi repl 29 and Calb FLC -25.
Cc1c(NC(=O)c2ccc(F)cc2)c(=O)n(-c2ccccc2)n1C was read as B2AR ag 0, RanGTP-Imp inh -5.5, LANA-H2B inh -1.0, UCH37 inh 5.6, A1 inh -0.7, T cruzi repl -13 and Calb FLC -12.
For CCOc1ccccc1N(C)C(=O)C1CCN(S(=O)(=O)c2cccc3nonc23)CC1 the results were B2AR ag 4, RanGTP-Imp inh 6.4, LANA-H2B inh -2.8, UCH37 inh 1.6, A1 inh -0.3, T cruzi repl 12 and Calb FLC 6.
Screening CCOc1ccc(CN2CCN(S(=O)(=O)c3ccc(NC(C)=O)cc3)CC2)cc1OC returned B2AR ag 2, Beta apoptosis -1, RanGTP-Imp inh 3.4, LANA-H2B inh 10, UCH37 inh 0.1, A1 inh 1.9, T cruzi repl -13 and Calb FLC 15.
Screening Cc1cc(NC(=O)CSc2nnc(-c3ccccc3Cl)o2)no1 returned B2AR ag -6, Beta apoptosis -5, RanGTP-Imp inh -2.4, LANA-H2B inh 0.0, UCH37 inh 1.2, A1 inh 0.0, T cruzi repl -8 and Calb FLC 7.
Screening CCN=C1S/C(=C\c2ccc(N3CCOCC3)cc2C)C(=O)N1CC returned B2AR ag 2, RanGTP-Imp inh 3.2, LANA-H2B inh -0.6, UCH37 inh 2.4, A1 inh 0.0, T cruzi repl 8 and Calb FLC 28.
For C/C=C/c1ccc(OCC(=O)NNC(=O)CN(C)S(=O)(=O)c2ccc(C)cc2)c(OC)c1 the results were B2AR ag -4, Beta apoptosis 1, LANA-H2B inh -1.3, UCH37 inh 2.9 and A1 inh 1.4.
For CCOC(=O)N1CCN(C(=O)CCc2c(C)nc3nc(C)nn3c2C)CC1 the results were B2AR ag 6, Beta apoptosis -5, RanGTP-Imp inh -2.2, LANA-H2B inh 4.9, UCH37 inh 1.0, A1 inh 0.3, T cruzi repl -3 and Calb FLC -41.
CC(=O)Nc1ccc(S(=O)(=O)NC2(C(F)(F)F)NC(=O)N(c3ccc(Cl)cc3)C2=O)cc1 (configuration not stated) was read as B2AR ag 5, Beta apoptosis -8, RanGTP-Imp inh 2.6, LANA-H2B inh -4.6, UCH37 inh 1.0, A1 inh 0.2, T cruzi repl -10 and Calb FLC 45.
C=C1CCC[C@]2(C)C[C@H]3OC(=O)C(CN4CCOCC4)[C@H]3C[C@@H]12 (some centres not stated) was read as B2AR ag 1, Beta apoptosis -7, RanGTP-Imp inh 3.7, LANA-H2B inh 1.6, UCH37 inh 5.3, A1 inh -0.7, T cruzi repl -35 and Calb FLC 0.
For CCOc1cc(NC(=S)Nc2cccc(OC)c2)c(OCC)cc1NC(=O)c1ccc(C)cc1 the results were B2AR ag -2, Beta apoptosis 0, RanGTP-Imp inh inconclusive, LANA-H2B inh 1.9, UCH37 inh -4.1, A1 inh 0.5, T cruzi repl 21 and Calb FLC 2.
For O=C(COC(=O)CCC(=O)N1CCOCC1)Nc1ccc(Br)cc1Br the results were B2AR ag -1, Beta apoptosis 0, LANA-H2B inh -1.2, UCH37 inh 2.9 and A1 inh -0.5.
Screening COc1c(Cl)cc(Cl)cc1C(=O)Nc1ccccc1N1CCN(C(C)=O)CC1 returned B2AR ag -3, Beta apoptosis -5, RanGTP-Imp inh 0.8, LANA-H2B inh 1.7, UCH37 inh -17, A1 inh -0.8, T cruzi repl 9 and Calb FLC -3.
For Cc1ccc(-c2nnn(CC(=O)N3C(C)CCCC3C)n2)cc1 (configuration not stated) the results were B2AR ag 7, Beta apoptosis -3, RanGTP-Imp inh 0.3, LANA-H2B inh -2.9, UCH37 inh 0.7, A1 inh 0.4, T cruzi repl 0 and Calb FLC -15.
Screening CC(NC(=O)Cc1ccc(S(=O)(=O)N2CCOCC2)s1)c1ccc(Cl)cc1Cl (configuration not stated) returned B2AR ag 3, Beta apoptosis 1, RanGTP-Imp inh -4.4, LANA-H2B inh -1.5, UCH37 inh 1.2, A1 inh 1.2, T cruzi repl -4 and Calb FLC -25.
For COc1ccc(Br)cc1S(=O)(=O)N1CCOCC1 the results were B2AR ag -7, Beta apoptosis 1, RanGTP-Imp inh -0.5, LANA-H2B inh 3.2, UCH37 inh -1.2, A1 inh 0.4, T cruzi repl 6 and Calb FLC 3.
Cc1cccc(NC(=S)NCCC(c2ccccc2)c2ccccc2)c1 was read as B2AR ag 4, Beta apoptosis 10, RanGTP-Imp inh -3.2, LANA-H2B inh 3.0, UCH37 inh 3.1, A1 inh 0.7, T cruzi repl 35 and Calb FLC -14.
For COc1ccc2oc(=O)c(C(=O)Nc3cccc(C)c3)cc2c1 the results were B2AR ag 3, Beta apoptosis 3, RanGTP-Imp inh -0.4, LANA-H2B inh -1.6, UCH37 inh 1.8, A1 inh -3.4, T cruzi repl 9 and Calb FLC inconclusive.
Screening COc1cc(OC)cc(C(=O)NCC(=O)NCC(c2ccco2)N2CCCCC2)c1 (configuration not stated) returned B2AR ag -2, Beta apoptosis 0, LANA-H2B inh -3.9, UCH37 inh 0.1 and A1 inh -0.4.
`O=C(COC(=O)c1ccc2c(c1)OCO2)NC1CCS(=O)(=O)C1` (configuration not stated) gave B2AR ag 1, Beta apoptosis 0, RanGTP-Imp inh -0.8, LANA-H2B inh -1.7, UCH37 inh 2.2, A1 inh 0.2, T cruzi repl -13 and Calb FLC -6.
`O=C(/C=C/c1cccc(Cl)c1)NCc1ccccc1` gave B2AR ag -1, Beta apoptosis -3, RanGTP-Imp inh 5.3, LANA-H2B inh -4.5, UCH37 inh -0.3, A1 inh 0.3, T cruzi repl 1 and Calb FLC 12.
`CC(C)(C)NC(=O)c1cccc(NC(=O)c2ccc3c(c2)C(=O)N(C(C)(C)C)C3=O)c1` gave B2AR ag 17, Beta apoptosis 1, RanGTP-Imp inh 5.0, LANA-H2B inh -4.5, UCH37 inh 3.1, A1 inh 0.2, T cruzi repl 15 and Calb FLC 28.
COC1=C(C)C(O)=C(C(=O)/C=C/c2ccccc2)C(=O)C1(C)C was read as B2AR ag 3, Beta apoptosis 0, RanGTP-Imp inh 1.0, LANA-H2B inh 1.7, UCH37 inh 3.6, A1 inh 0.3, T cruzi repl -22 and Calb FLC -11.
Screening Cc1c(Cl)c([N+](=O)[O-])nn1Cc1ccc(C(=O)NN)o1 returned B2AR ag 2, Beta apoptosis 0, RanGTP-Imp inh 0.5, LANA-H2B inh -5.3, UCH37 inh 4.8, A1 inh -0.1, T cruzi repl 15 and Calb FLC -7.
CCOC(=O)c1c(C)[nH]c(C(=O)CN2C(=O)NC3(CCCC3)C2=O)c1C was read as B2AR ag -8, Beta apoptosis -3, RanGTP-Imp inh 3.4, LANA-H2B inh 2.1, UCH37 inh -2.1, A1 inh 0.7, T cruzi repl -2 and Calb FLC 10.
